Ecoli rRNA inh: selective bacterial rRNA inhibition in E. coli | E. coli WT GFP vs humanized-ribosome RFP mutants, fluorescence, 24 h; active compounds read low; DMSO median 0, no signal -100 | GFP signal change (wild-type ribosome), % (concentration not given with the values) | actives 1.6% (n = 350,000) | AID 720706;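 active means significant combined selectivity score with lowered wild-type GFP, culture density cut under 30%, mutant RFP and density less affected; inactive means any of these conditions unmet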; further: one replicate is shown; some compounds called inactive have numbers as strong as hits
Ecoli rRNA inh OD600: second read-out of Ecoli rRNA inh, no call of its own (marks repeat the call); OD600 change, %; measured here: OD600 growth;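 optical density of the mix in the first replicate; 0 = DMSO median and -100 = no signal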
Ecoli rRNA inh RFP: further read-out of Ecoli rRNA inh, marked with its call; RFP signal change, %; measured here: RFP humanized mutant strains;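 first replicate; 0 = DMSO median and -100 = no signal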
Numbers without * were called inactive; & = joins results of further samples.

SMILES | Ecoli rRNA inh | Ecoli rRNA inh OD600 | Ecoli rRNA inh RFP
CCCCNC(=O)C1(C)CCCCN1C(=O)c1ccc(C#N)cc1 (stereo unspecified) | 5.7 | 17.2 | -1.1
CCCNC(=O)N1CC2(C1)CN(Cc1cccc(OC)c1)[C@H](CO)c1[nH]c3cc(OC)ccc3c12 | -1.1 | -1.4 | 3.3
CC(=O)N[C@@H]1CC[C@H](CCNC(=O)C2CCC2)O[C@@H]1CO | 3.7 | 5.4 | 0.2
Cc1noc(C)c1NC(=O)N(C)C[C@H]1OCCCC[C@@H](C)Oc2ccc(NS(=O)(=O)c3cccs3)cc2C(=O)N([C@H](C)CO)C[C@@H]1C | -2.4 | -0.4 | -3.8
CO[C@@H](CN(C)Cc1cc(F)ccc1F)[C@H](C)CN(C(=O)Nc1ccc(F)cc1)[C@@H](C)CO | -5.2 | 1.3 | 0.8
Cc1nnc(-n2cccc2)s1 | 6.0 | 0.4 | 0.1
COc1ccc(S(=O)(=O)Nc2ccc3c(c2)C(=O)N([C@H](C)CO)C[C@H](C)[C@@H](CN(C)Cc2ccc4c(c2)OCO4)OCCCC[C@H](C)O3)cc1 | 0.8 | -12.0 | -0.3
C[C@H](CO)N1C[C@H](C)[C@H](CN(C)C(=O)c2ccncc2)OCCCC[C@H](C)Oc2ccc(NC(=O)CCC(F)(F)F)cc2C1=O | -0.1 | 11.0 | -0.4
Cc1ccc(-n2ncc(-c3n[nH]c(=S)o3)c2N)cc1C | -6.8 | -0.5 | -1.9
O=C(N[C@@H]1CC[C@@H](CCn2cc(-c3cccnc3)nn2)O[C@@H]1CO)c1ccccc1F | 5.4 | 4.9 | -2.4
O=C(C[C@@H]1C[C@H]2c3cc(NC(=O)C4CCOCC4)ccc3O[C@H]2[C@H](CO)O1)NCc1ccc(Cl)cc1 | -3.7 | -3.5 | 1.4
Cc1ccc(S(=O)(=O)N[C@H]2CC[C@@H](CCNC(=O)c3ccccc3F)O[C@@H]2CO)cc1 | 2.0 | 5.2 | -0.4
C[C@@H]1CN([C@H](C)CO)S(=O)(=O)c2ccc(C#C[C@@H](C)O)cc2O[C@H]1CN(C)C(=O)c1ccncc1 | 0.3 | -3.5 | -2.0
CN1C(=O)c2cc(NC(=O)c3cc(F)cc(F)c3)ccc2OC[C@H]2O[C@H](CC(=O)O)CC[C@H]21 | -0.3 | -1.7 | -0.1
CC(C)C[C@H]1CN([C@@H](CC(C)C)CN2CCC[C@H]2CN2C(=O)C(=O)NC[C@@H]2Cc2ccccc2)C(=O)C(=O)N1CCc1ccccc1 | 4.7 | 5.7 | -2.8
CC(C)NC(=O)N1C[C@@H]2C(c3ccc(Br)cc3)[C@H](C1)N2Cc1ccc(F)cc1 (stereo partly specified) | -2.5&-14.4 | -9.0&-56.7 | 1.0&17.0
COc1cc(CNC[C@H]2O[C@@H](n3ccc(N)nc3=O)[C@H](O)[C@@H]2O)ccc1OCc1ccc(C)cc1 | 6.5 | 4.4 | 1.2
COc1ccc(C#Cc2ccc3c(c2)[C@@H]2[C@@H](CCN2S(=O)(=O)C2=NC(C)C=N2)[C@H](CO)N3C)cc1 (stereo partly specified) | 2.7 | -3.1 | -1.1
Cc1noc(C)c1S(=O)(=O)Nc1ccc2c(c1)C(=O)N([C@@H](C)CO)C[C@@H](C)[C@H](CN(C)S(=O)(=O)c1c(C)noc1C)OCCCC[C@@H](C)O2 | -0.4 | 1.5 | 1.5
C[C@@H]1CN([C@@H](C)CO)C(=O)c2cc(C#Cc3ccccc3F)cnc2O[C@@H]1CN(C)C(=O)C1CC1 | 0.0 | -11.1 | 0.5
C/C=C/c1ccc2c(c1)O[C@@H](CN(C)Cc1ccccn1)[C@H](C)CN([C@H](C)CO)S2(=O)=O | -6.3 | -23.2 | 6.0
CCCCCCCCN1C(=O)[C@H](CC(=O)N2CCN(C(=O)c3ccco3)CC2)C[C@@]2(C(=O)OC)CC(C)(C)CC=C12 | 6.9 | -1.0 | 2.2
C[C@H](CO)N1C[C@H](C)[C@H](CN(C)S(=O)(=O)c2ccccc2F)Oc2ncc(C#Cc3ccccc3F)cc2C1=O | -2.0 | 0.6 | -0.4
C[C@H](CO)N1C[C@H](C)[C@@H](CN(C)S(=O)(=O)c2ccc(Cl)cc2)Oc2c(NC(=O)Nc3ccc(C(F)(F)F)cc3)cccc2C1=O | 0.3 | -3.1 | 0.6

Single records (already shown).
Record of C[C@@H]1CN([C@@H](C)CO)C(=O)c2cc(C#Cc3ccccc3F)cnc2O[C@@H]1CN(C)C(=O)C1CC1 = Ecoli rRNA inh = 0.0; Ecoli rRNA inh OD600 = -11.1; Ecoli rRNA inh RFP = 0.5
Record of COc1ccc(C#Cc2ccc3c(c2)[C@@H]2[C@@H](CCN2S(=O)(=O)C2=NC(C)C=N2)[C@H](CO)N3C)cc1 (stereo partly specified) = Ecoli rRNA inh = 2.7; Ecoli rRNA inh OD600 = -3.1; Ecoli rRNA inh RFP = -1.1
Record of CC(C)NC(=O)N1C[C@@H]2C(c3ccc(Br)cc3)[C@H](C1)N2Cc1ccc(F)cc1 (stereo partly specified) = Ecoli rRNA inh = -2.5&-14.4; Ecoli rRNA inh OD600 = -9.0&-56.7; Ecoli rRNA inh RFP = 1.0&17.0

The results go on.
SMILES | Ecoli rRNA inh | Ecoli rRNA inh OD600 | Ecoli rRNA inh RFP
C[C@@H]1CN([C@H](C)CO)C(=O)c2cc(C3=CCCCC3)cnc2O[C@@H]1CN(C)C(=O)c1ccccn1 | -0.1 | -9.1 | -4.8
COC(=O)c1cc2c(c3c4cc(OC)ccc4n(S(=O)(=O)c4cccc(C)c4)c13)C(=O)N(Cc1ccccc1OC)C2 | 6.8 | 6.3 | 27.6
COC(=O)C[C@H]1CC[C@H]2[C@H](COc3ccc(NC(=O)Nc4cccc(C#N)c4)cc3C(=O)N2C)O1 | -6.5 | -7.3 | -0.8
O=c1cc(CN2CCN(c3ccccc3F)CC2)c2c(ccc3ccccc32)o1 | 1.3 | -3.8 | 8.5
COc1ccc(CN(C)C[C@H]2Oc3c(NC(=O)Nc4c(C)noc4C)cccc3C(=O)N([C@H](C)CO)C[C@@H]2C)cc1 | 0.9 | -3.2 | -0.3
CCC(C)CN1C(=O)CSCC1(C)C(=O)Nc1ccc2c(c1)OCCO2 (stereo unspecified) | -3.0 | 2.9 | 5.5
CO[C@@H]1CN(C)C(=O)c2ccc(NC(=O)Cc3ccccc3)cc2OC[C@H](C)N(CC2CC2)C[C@H]1C | -1.5 | 1.5 | -0.2
COC(=O)C1=C(C)N(Cc2ccc(C(F)(F)F)cc2)C(=NCc2ccc(OC)cc2)NC1c1cccc(Cl)c1 (stereo unspecified) | 8.6 | 8.2 | 1.1
CC[C@H]1C/C=C\C[C@H](c2ccc(F)cc2)NC(=O)CCC(=O)N1 | 3.7 | -3.1 | -1.0
CCCNC(=O)Nc1ccc2c(c1)OC[C@@H](C)N(Cc1ccccc1)C[C@@H](C)[C@@H](OC)CN(C)C2=O | 2.2 | 10.4 | -2.0
O=C(C[C@@H]1C=C[C@@H](NC(=O)c2cccc(F)c2)[C@H](CO)O1)NCCN1CCCC1 | 2.1 | 7.6 | -0.1
C[C@H](CO)N1C[C@H](C)[C@H](CN(C)Cc2ccc(F)cc2)Oc2ncc(Br)cc2C1=O | 2.2&2.7 | 5.2&-5.1 | 1.6&-0.3
CN(C)C(=O)C[C@H]1C[C@@H]2c3cc(NC(=O)c4ccc5c(c4)OCO5)ccc3O[C@@H]2[C@@H](CO)O1 | -0.3 | -0.5 | -0.8
C[C@@H]1CCCCO[C@@H](CN(C)Cc2ccc(Cl)c(Cl)c2)[C@@H](C)CN([C@H](C)CO)C(=O)c2cc(NC(=O)Nc3ccc(F)cc3)ccc2O1 | -0.8 | 13.1 | -1.0
O=S(=O)(c1ccccc1)N1C[C@H]2[C@@H](c3ccccc31)[C@H](CO)N2Cc1ccccc1 | -37.9 | -30.8 | 6.2
COc1ccc(CN2C(=O)c3ccccc3C2c2nnnn2-c2c(C)cccc2C)cc1OC (stereo unspecified) | -21.6 | -29.6 | -3.8
C[C@@H]1CN([C@H](C)CO)C(=O)c2cc(C3=CCCCC3)cnc2O[C@@H]1CN(C)C(=O)c1ccc(F)cc1 | 2.6 | 4.7 | 2.7
COc1ccc(CCCNC(=O)C2(C)Cc3c(-c4ccc5c(c4)OCO5)ccnc3O2)cc1 (stereo unspecified) | -11.7 | -21.4 | -0.3
O=C(C[C@@H]1C=C[C@H](NC(=O)C2CC2)[C@H](CO)O1)Nc1nccs1 | 1.0 | 4.6 | -1.6
CN(C)CC(=O)N[C@@H]1CC[C@@H](CCn2cc(CN(C)C)nn2)O[C@H]1CO | 4.7 | 3.5 | -1.5
COCCCN1C(=O)C(CC(=O)NCCN2CCOCC2)CC(C(=O)N(C)C)=C1C (stereo unspecified) | 10.9 | 19.8 | 0.3
CN1C(=O)c2cc(NC(=O)C3CCCC3)ccc2OC[C@H]2O[C@@H](CC(=O)NCCc3ccncc3)CC[C@H]21 | 0.9 | 7.5 | -1.8
CCC(=O)N(C)C[C@H]1Oc2ncc(/C=C/c3ccccc3)cc2C(=O)N([C@H](C)CO)C[C@H]1C | -3.6 | 1.3 | -2.1
C[C@@H]1CCCCO[C@H](CN(C)Cc2ccncc2)[C@H](C)CN([C@H](C)CO)C(=O)c2cc(NC(=O)CCCN(C)C)ccc2O1 | 4.3 | 6.4 | -1.9
COc1ccc(S(=O)(=O)Nc2ccc3c(c2)C(=O)N([C@H](C)CO)C[C@@H](C)[C@@H](CN(C)C(=O)NC2CCCCC2)OCCCC[C@H](C)O3)cc1 | -1.4 | -3.2 | 1.4
COc1ccc(C2CC(=O)C(c3ccc(F)cc3)=CN2Cc2ccccc2)cc1 (stereo unspecified) | -12.0 | -13.2 | 2.8
C[C@H]1CN([C@@H](C)CO)C(=O)c2cc(NC(=O)Cc3ccccc3)ccc2O[C@H]1CN(C)Cc1ccc2c(c1)OCO2 | 2.0 | -5.4 | -1.9
COc1ccc2ccccc2c1CN1CCN(c2ncc(Cc3ccccc3)cn2)CC1 | -14.3 | -9.0 | -7.2
CCC1NC(=O)c2cccnc2-n2c1nc1ccc(F)cc1c2=O (stereo unspecified) | 13.8 | 18.1 | -0.9
O=C(Nc1ccc(F)cc1)N1C[C@H]2[C@@H](c3ccccc31)[C@@H](CO)N2C(=O)c1ccccc1F | -0.3 | 1.2 | -2.2
COc1ccc(C#Cc2cnc3c(c2)C(=O)N([C@H](C)CO)C[C@@H](C)[C@H](CN(C)CC2CCOCC2)O3)cc1 | 4.4 | -0.9 | -0.1
CC(C)NC(=O)NC[C@@H]1[C@H](c2ccccc2)[C@H](CO)N1C(=O)c1ccccc1 | 2.2 | 1.5 | -4.9
CC(C)c1cn(CC[C@H]2CC[C@H](NC(=O)c3cccc(F)c3)[C@H](CO)O2)nn1 | -0.8 | -2.5 | -1.1
COc1ccccc1NC(=O)N1C[C@H](O)COC[C@H]2O[C@H](CC(=O)NCCc3ccncc3)CC[C@@H]21 | 5.3 | 5.6 | -0.2
C[C@@H]1CCCCO[C@H](CN(C)C(=O)c2ccccc2)[C@@H](C)CN([C@H](C)CO)C(=O)c2cc(NS(=O)(=O)c3cn(C)cn3)ccc2O1 | 0.9 | 3.7 | -2.9
COc1ccc(NC(=O)N2CCC3(CC2)CN(C(=O)C2CCC2)[C@H](CO)c2c3c3ccc(OC)cc3n2C)cc1 | 1.5 | -10.1 | -2.9
Cn1cnc(S(=O)(=O)N[C@H]2CC[C@H](CC(=O)Nc3ccccc3)O[C@@H]2CO)c1 | 2.3 | 6.8 | -0.1
CO[C@H]1CN(C)C(=O)c2ccc(NS(=O)(=O)c3ccc(Cl)cc3)cc2OC[C@H](C)NC[C@@H]1C | 2.8 | 4.0 | -0.5
COc1ccc(-c2cnc3c(c2)C(=O)N([C@H](C)CO)C[C@@H](C)[C@@H](CN(C)C(=O)Cc2ccncc2)O3)cc1 | 4.3 | 11.3 | 0.1
C[C@@H]1CN([C@@H](C)CO)C(=O)c2cc(NC(=O)Cc3ccccc3)ccc2O[C@@H](C)CCCCO[C@H]1CN(C)C | 1.0 | 3.7 | 1.5
C[C@H](CO)N1C[C@H](C)[C@H](CN(C)S(=O)(=O)c2ccc(Cl)cc2)Oc2ccc(NS(=O)(=O)c3ccc(Cl)cc3)cc2C1=O | 2.8 | -5.7 | 0.3
OC(c1cccc(CN2CCCCC2)c1)c1ncc(-c2ccccc2Cl)[nH]1 (stereo unspecified) | 11.0 | 23.4 | 0.6
COc1cccc(S(=O)(=O)N2C[C@H](O)COC[C@@H]3O[C@@H](CC(=O)N4CCN(c5ccccc5)CC4)CC[C@H]32)c1 | -6.5 | -18.0 | -3.6
C[C@@H]1CN([C@@H](C)CO)C(=O)Cc2cc(NS(=O)(=O)c3ccc(F)cc3)ccc2O[C@H]1CN(C)Cc1ccncc1 | -3.2 | -6.3 | -0.3

As entered above:
In Ecoli rRNA inh OD600, COc1ccc(-c2cnc3c(c2)C(=O)N([C@H](C)CO)C[C@@H](C)[C@@H](CN(C)C(=O)Cc2ccncc2)O3)cc1 reads 11.3
In Ecoli rRNA inh OD600, C[C@@H]1CN([C@@H](C)CO)C(=O)c2cc(NC(=O)Cc3ccccc3)ccc2O[C@@H](C)CCCCO[C@H]1CN(C)C reads 3.7
In Ecoli rRNA inh OD600, CO[C@H]1CN(C)C(=O)c2ccc(NS(=O)(=O)c3ccc(Cl)cc3)cc2OC[C@H](C)NC[C@@H]1C reads 4.0

Some of these compounds in order of their number in Ecoli rRNA inh, highest first.
SMILES | Ecoli rRNA inh | Ecoli rRNA inh OD600 | Ecoli rRNA inh RFP
COc1ccc(-c2cnc3c(c2)C(=O)N([C@H](C)CO)C[C@@H](C)[C@@H](CN(C)C(=O)Cc2ccncc2)O3)cc1 | 4.3 | 11.3 | 0.1
CO[C@H]1CN(C)C(=O)c2ccc(NS(=O)(=O)c3ccc(Cl)cc3)cc2OC[C@H](C)NC[C@@H]1C | 2.8 | 4.0 | -0.5
C[C@@H]1CN([C@@H](C)CO)C(=O)c2cc(NC(=O)Cc3ccccc3)ccc2O[C@@H](C)CCCCO[C@H]1CN(C)C | 1.0 | 3.7 | 1.5

Source: PubChem BioAssay

Only part of the results is shown; count on the stated rates, not on these rows.
